Vaccinia stage = blocks a specific stage of Vaccinia orthopoxvirus infection. 89,000 tested, 0.01% active. Vaccinia-infected cells, mCherry/Venus stage reporter fluorescence; stronger effect = lower value; some inactives read as strong as hits. activity change (mCherry), % (concentration not given with the values). AID 1053133;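 active means mCherry past -33% and 40 or more points under the early reporter, replicates agreeing; inconclusive means past -33% without that gap or agreement; tested in A549 cells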;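 further: scaled between vehicle wells and reference inhibitor wells; 23 nL library stock went into each well; one replicate is shown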
Vaccinia stage Venus = further read-out of Vaccinia stage, marked with its call; activity change (Venus), %; measured here: Venus reporter, other viral stage;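 negative = less Venus signal; first of two replicates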
* hit, by the source's call; ? = inconclusive; · = not tested or not shown; & = joins results of further samples.

SMILES,Vaccinia stage,Vaccinia stage Venus
CCCc1cn(CC[C@H]2CC[C@H](NC(=O)C3CCCCC3)[C@@H](CO)O2)nn1,-16,-12
C[C@H](CO)N1C[C@H](C)[C@@H](CN(C)C(=O)c2ccccn2)Oc2cc(Br)ccc2S1(=O)=O,3,2
Cc1noc(C)c1S(=O)(=O)Nc1ccc2c(c1)C(=O)N([C@H](C)CO)C[C@H](C)[C@@H](CN(C)CC1CC1)O2,-6,-7
O=C(Cc1ccccc1)N[C@@H]1CC[C@H](CC(=O)N2CCOCC2)O[C@@H]1CO,8,10
COc1ccccc1CN1CC[C@H]2[C@H](CO)Nc3ccc(-c4ccc(C(=O)N(C)C)cc4)cc3[C@H]21,-40*,32*
C[C@@H]1CN([C@H](C)CO)S(=O)(=O)c2ccc(-c3ccc(C(=O)N(C)C)cc3)cc2O[C@H]1CN(C)C(=O)C1CCC1,13,3
O=S(=O)(Cc1ccccc1)N1CCCCN2[C@H](CO)[C@@H](c3ccc(-c4ccc(F)cc4)cc3)[C@H]2C1,?,·
CC(=O)N(C)C[C@@H]1Oc2cc(C#CC(C)C)ccc2S(=O)(=O)N([C@H](C)CO)C[C@@H]1C,7,1

Remaining list, next part.
SMILES,Vaccinia stage,Vaccinia stage Venus
O=C(NCc1ccccc1)C1=C[C@@H](c2ccc3c(c2)OCO3)C[C@@H](OCCCCO)O1,2,3
CCC(=O)N1CC2(C1)[C@H](c1ccccc1)[C@@H](CO)N2CCC(F)(F)F,-10,-3
COc1ccc(S(=O)(=O)N2C[C@H](O)COC[C@H]3O[C@@H](CC(=O)N(C)C)CC[C@@H]32)cc1,28,18
C[C@H](CO)N1C[C@H](C)[C@@H](CN(C)C(=O)NC2CCCC2)Oc2ncc(C#CC3CCCCC3)cc2C1=O,-26,-24
COc1ccc(NC(=O)N(C)C[C@H]2OCc3cnnn3CCCC(=O)N([C@H](C)CO)C[C@@H]2C)cc1,-1&5,-3&8
Cc1noc(C)c1S(=O)(=O)Nc1ccc2c(c1)C(=O)N([C@@H](C)CO)C[C@H](C)[C@@H](CN(C)C(=O)Nc1cccc3ccccc13)O2,18,11
COCC#Cc1cnc2c(c1)C(=O)N([C@H](C)CO)C[C@@H](C)[C@H](CN(C)C(=O)Nc1ccccc1OC)O2,21,11
O=C(C[C@@H]1C[C@@H]2c3cc(NC(=O)Nc4ccccc4F)ccc3O[C@@H]2[C@H](CO)O1)NCc1ccc(Oc2ccccc2)cc1,5,7

The last three entries of the section above open the next one:
SMILES,Vaccinia stage,Vaccinia stage Venus
Cc1noc(C)c1S(=O)(=O)Nc1ccc2c(c1)C(=O)N([C@@H](C)CO)C[C@H](C)[C@@H](CN(C)C(=O)Nc1cccc3ccccc13)O2,18,11
COCC#Cc1cnc2c(c1)C(=O)N([C@H](C)CO)C[C@@H](C)[C@H](CN(C)C(=O)Nc1ccccc1OC)O2,21,11
O=C(C[C@@H]1C[C@@H]2c3cc(NC(=O)Nc4ccccc4F)ccc3O[C@@H]2[C@H](CO)O1)NCc1ccc(Oc2ccccc2)cc1,5,7
Cc1noc(C)c1NC(=O)N(C)C[C@@H]1Oc2c(NC(=O)C3CC3)cccc2C(=O)N([C@H](C)CO)C[C@@H]1C,10,14
COc1ccc(-c2ccc3c(c2)O[C@H](CN(C)Cc2ccccc2C(=O)O)[C@H](C)CN([C@@H](C)CO)S3(=O)=O)cc1,28,13
Cc1ccc(S(=O)(=O)Nc2ccc3c(c2)C(=O)N([C@H](C)CO)C[C@@H](C)[C@H](CN(C)Cc2ccc4c(c2)OCO4)OCCCC[C@H](C)O3)cc1,?,·
C[C@H](CO)N1C[C@H](C)[C@H](CN(C)Cc2ccc(Oc3ccccc3)cc2)Oc2c(NC(=O)Nc3ccc(F)cc3)cccc2C1=O,-18,-4
C[C@@H]1CN([C@@H](C)CO)C(=O)c2cc(NC(=O)c3ccccc3)ccc2O[C@@H](C)CCCCO[C@@H]1CN(C)Cc1ccncc1,10,9
C[C@@H]1CN([C@@H](C)CO)C(=O)c2cc(/C=C/c3ccccc3)cnc2O[C@H]1CN(C)C(=O)Nc1ccccc1F,-20,-10
COC(=O)[C@H]1[C@H](CO)[C@H]2Cn3c(ccc(/C=C/c4ccccc4)c3=O)[C@H]2N1C(=O)c1cnccn1,-9,-9
O=C(C[C@H]1CC[C@@H]2[C@H](COC[C@@H](O)CN2C(=O)Nc2ccc(Cl)c(Cl)c2)O1)NC1CCC1,-16,-6

Next results follow:
SMILES,Vaccinia stage,Vaccinia stage Venus
O=C(N[C@H]1CC[C@H](CC(=O)N2CCc3ccccc3C2)O[C@H]1CO)C1CC1,8,4
C[C@H]1CN([C@@H](C)CO)C(=O)c2cc(NC(=O)Cn3cnnn3)ccc2O[C@@H]1CN(C)Cc1ccc(-c2ccccc2)cc1,12,9
CN(C)C(=O)C[C@@H]1C=C[C@H](NC(=O)C2CC2)[C@@H](CO)O1,8,-1
COc1ccccc1-c1cnc2c(c1)C(=O)N([C@@H](C)CO)C[C@H](C)[C@H](CN(C)Cc1ccccc1)O2,-14,-13
C[C@H](CO)N1C[C@H](C)[C@@H](CN(C)Cc2ccc(C(=O)O)cc2)OCCCC[C@H](C)Oc2ccc(NC(=O)c3ccncc3)cc2C1=O,17,3
O=C(Cc1cccnc1)N1CC(=O)N2[C@@H](CO)[C@H](c3ccc(C#CC4CCCC4)cc3)[C@@H]2C1,-10,-10
CN(C)CCCNC(=O)[C@H]1[C@H](CO)[C@H]2Cn3c(ccc(-c4cccc(F)c4)c3=O)[C@@H]1N2C,8,7
CC(C)NC(=O)N(C)C[C@H]1Oc2ccc(NC(=O)C3CCCCC3)cc2C(=O)N([C@@H](C)CO)C[C@H]1C,2,1

5 compounds already listed, sorted by molar mass, rising:
SMILES,Vaccinia stage,Vaccinia stage Venus
O=C(Cc1ccccc1)N[C@@H]1CC[C@H](CC(=O)N2CCOCC2)O[C@@H]1CO,8,10
CC(=O)N(C)C[C@@H]1Oc2cc(C#CC(C)C)ccc2S(=O)(=O)N([C@H](C)CO)C[C@@H]1C,7,1
CN(C)CCCNC(=O)[C@H]1[C@H](CO)[C@H]2Cn3c(ccc(-c4cccc(F)c4)c3=O)[C@@H]1N2C,8,7
C[C@H](CO)N1C[C@H](C)[C@@H](CN(C)C(=O)NC2CCCC2)Oc2ncc(C#CC3CCCCC3)cc2C1=O,-26,-24
C[C@@H]1CN([C@H](C)CO)S(=O)(=O)c2ccc(-c3ccc(C(=O)N(C)C)cc3)cc2O[C@H]1CN(C)C(=O)C1CCC1,13,3

2 consecutive compounds out of the list so far:
SMILES,Vaccinia stage,Vaccinia stage Venus
O=C(Cc1cccnc1)N1CC(=O)N2[C@@H](CO)[C@H](c3ccc(C#CC4CCCC4)cc3)[C@@H]2C1,-10,-10
CN(C)CCCNC(=O)[C@H]1[C@H](CO)[C@H]2Cn3c(ccc(-c4cccc(F)c4)c3=O)[C@@H]1N2C,8,7

(list continues)
SMILES,Vaccinia stage,Vaccinia stage Venus
C[C@@H]1CN([C@@H](C)CO)C(=O)c2cc(N(C)C)ccc2O[C@@H]1CN(C)Cc1ccc(-c2ccccc2)cc1,-31,-26
O=C([C@H]1N[C@H]2c3ccc(-c4ccccc4)c(=O)n3C[C@H]2[C@@H]1CO)N1CCOCC1,8,13
O=C(C[C@@H]1CC[C@H]2[C@@H](COC[C@@H](O)CN2Cc2cc(F)ccc2F)O1)N1CCc2ccccc2C1,-6,-5
CC(C)NC(=O)Nc1ccc2c(c1)C(=O)N([C@H](C)CO)C[C@@H](C)[C@@H](CN(C)Cc1ccc(C(F)(F)F)cc1)OCCCC[C@H](C)O2,?,·
C[C@@H]1CCCCO[C@H](CN(C)S(=O)(=O)c2cn(C)cn2)[C@@H](C)CN([C@H](C)CO)C(=O)c2cc(NC(=O)c3ccccc3)ccc2O1,15,9
CC(C)NC(=O)N(C)C[C@H]1Oc2ccc(NC(=O)C3CCCCC3)cc2CC(=O)N([C@@H](C)CO)C[C@H]1C,18,21
O=C(Cc1ccccn1)N1CC(=O)N2[C@H](C1)[C@@H](c1ccc(C#CCC3CCCC3)cc1)[C@@H]2CO,?,·
C[C@@H]1CN([C@H](C)CO)C(=O)c2cc(NC(=O)CCN3CCOCC3)ccc2O[C@@H]1CN(C)Cc1ccncc1,13,3

The list goes on:
Values in the order – Vaccinia stage	Vaccinia stage Venus
- COCC(=O)Nc1ccc2c(c1)[C@@H]1C[C@H](CC(=O)NCc3ccccc3F)O[C@H](CO)[C@@H]1O2
  -7	4
- CN1C(=O)c2cc(NC(=O)c3ccccc3)ccc2OC[C@H]2O[C@@H](CC(=O)NCC3CC3)CC[C@H]21
  -2	5
- CC(C)CC#Cc1ccc2c(c1)O[C@@H](CN(C)S(=O)(=O)c1ccc(F)cc1)[C@H](C)CN([C@H](C)CO)S2(=O)=O
  ?	·
- O=C(C[C@@H]1C=C[C@H](NC(=O)C2CCC2)[C@H](CO)O1)NCc1ccccc1Cl
  -1	0
- CN(C)C(=O)c1cccc(-c2ccc([C@H]3[C@H](CO)N4C(=O)CN(C(=O)C5CCC5)C[C@@H]34)cc2)c1
  10	2
- Cc1ccc(S(=O)(=O)N(C)C[C@H]2Oc3ccc(NC(=O)Nc4ccc(C(F)(F)F)cc4)cc3C(=O)N([C@@H](C)CO)C[C@H]2C)cc1
  -23	-12
- Cc1noc(C)c1NC(=O)Nc1ccc2c(c1)C(=O)N([C@@H](C)CO)C[C@H](C)[C@@H](CN(C)Cc1ccc(C(F)(F)F)cc1)OCCCC[C@H](C)O2
  ?	·
- CC(=O)N1[C@@H]2c3ccc(-c4cncnc4)c(=O)n3C[C@H]1[C@H](CO)[C@H]2C(=O)NC1Cc2ccccc2C1
  15	19
- Cc1noc(C)c1NC(=O)Nc1ccc2c(c1)C(=O)N([C@@H](C)CO)C[C@H](C)[C@H](CN(C)S(=O)(=O)c1ccc(Cl)cc1)OCCCC[C@@H](C)O2
  24	2
- C[C@@H]1CN([C@@H](C)CO)S(=O)(=O)c2ccc(Br)cc2O[C@H]1CN(C)C
  30	17

(further entries)
Values in the order – Vaccinia stage	Vaccinia stage Venus
- O=C(c1ccc(F)cc1)N1CCCCN2[C@@H](CO)[C@@H](c3ccc(/C=C/c4ccccc4)cc3)[C@@H]2C1
  ?	·
- CCCN(C)C[C@H]1OCCCC[C@@H](C)Oc2ccc(NC(=O)NC(C)C)cc2C(=O)N([C@@H](C)CO)C[C@H]1C
  12	-7
- O=C(C[C@@H]1C[C@@H]2c3cc(NC(=O)c4ccc5c(c4)OCO5)ccc3O[C@@H]2[C@H](CO)O1)NCc1cccnc1
  5	11
- Cc1noc(C)c1NC(=O)Nc1ccc2c(c1)C(=O)N([C@H](C)CO)C[C@@H](C)[C@@H](CN(C)C(=O)Nc1ccc3c(c1)OCO3)OCCCC[C@@H](C)O2
  13	7
- COCC(=O)Nc1ccc2c(c1)OC[C@@H](C)N(Cc1ccccn1)C[C@@H](C)[C@H](OC)CN(C)C2=O
  -3	-2
- C[C@@H]1CN([C@H](C)CO)C(=O)c2cc(N(C)C)ccc2O[C@H]1CN(C)Cc1ccc(Oc2ccccc2)cc1
  -23	-22
- C[C@H](CO)N1C[C@H](C)[C@@H](CN(C)C(=O)c2ccccc2)OCCCC[C@H](C)Oc2ccc(NC(=O)Nc3ccc(F)cc3)cc2C1=O
  22	7
- C[C@H]1CN([C@@H](C)CO)C(=O)c2cc(C#Cc3ccccc3F)cnc2O[C@@H]1CN(C)S(C)(=O)=O
  7	-4
- CCCN1[C@@H]2Cn3c(ccc(-c4ccc(F)cc4)c3=O)[C@H]1[C@@H](C(=O)NCC1CC1)[C@@H]2CO
  -2	-3
- COc1cccc(CN2[C@@H]3CNC[C@H]2C3c2ccc(-c3cccnc3)cc2)c1 (stereo partly specified)
  4	1

(list continues)
Values in the order – Vaccinia stage	Vaccinia stage Venus
- O=C(C[C@H]1C[C@H]2c3cc(NC(=O)c4ccc5c(c4)OCO5)ccc3O[C@H]2[C@@H](CO)O1)NCc1cccnc1
  7	13
- O=C(Nc1ccc(F)cc1)N1CCCCN2[C@@H](CO)[C@@H](c3ccc(C#CC4CC4)cc3)[C@@H]2C1
  ?	·
- CCCC#Cc1ccc(CC[C@H]2O[C@H]3CC[C@@H](CO)O[C@H]3C[C@H]2NC(=O)c2cnccn2)cc1
  -23	-17
- O=C(Cc1ccccn1)N1CC(=O)N2[C@H](CO)[C@@H](c3ccc(C#CC4CCCCC4)cc3)[C@@H]2C1
  ?	·
- O=C(Nc1ccc2c(c1)[C@@H]1C[C@@H](CC(=O)N3CCOCC3)O[C@@H](CO)[C@@H]1O2)Nc1ccccc1F
  13	10
- CC(C)NC(=O)N[C@@H]1CC[C@@H](CC(=O)NCc2ccc(Oc3ccccc3)cc2)O[C@@H]1CO
  -13	-4
- O=C(Nc1ccccc1F)N1CCCCN2[C@H](CO)[C@@H](c3ccc(/C=C/c4ccccc4)cc3)[C@@H]2C1
  ?	·
- CO[C@H]1CN(C)C(=O)c2ccc(NC(=O)Nc3cc(Cl)cc(Cl)c3)cc2OC[C@H](C)NC[C@@H]1C
  ?	·
- N#Cc1cccc(-c2ccc3c(c2)[C@H]2[C@H](CCN2C(=O)c2ccc4c(c2)OCO4)[C@H](CO)N3)c1
  ?	·
- COC(=O)C[C@@H]1CC[C@H]2[C@H](COc3ccc(NC(=O)Nc4cccc(Cl)c4)cc3C(=O)N2C)O1
  -19	-9

(continued)
Values in the order – Vaccinia stage	Vaccinia stage Venus
- O=C(C[C@H]1C[C@@H]2c3cc(NC(=O)NC4CCCC4)ccc3O[C@@H]2[C@@H](CO)O1)NCc1ccccc1F
  11	14
- Cc1noc(C)c1NC(=O)N[C@H]1C=C[C@H](CC(=O)NCc2ccc(Cl)c(Cl)c2)O[C@@H]1CO
  0	-6
- O=C(c1cccnc1)N1CC(=O)N2[C@H](C1)[C@@H](c1ccc(C#CCC3CCCC3)cc1)[C@@H]2CO
  ?	·
- C[C@H](CO)N1C[C@H](C)[C@H](CN(C)Cc2ccc3c(c2)OCO3)Oc2ccc(NS(C)(=O)=O)cc2CC1=O
  2	1
- C[C@@H](NC(=O)C[C@@H]1C=C[C@H](NC(=O)Cc2ccccn2)[C@H](CO)O1)c1ccccc1
  -3	2

These rows are one share of the data; rates above refer to the full screens.
